GIRK2 activ = GIRK2 channel activation; P48051; HEK293-GIRK2 thallium flux, Thallos fluorescence; calls only for hits at 25 µM; actives 0.05% (n = 63,000);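 active = among the strongest 0.2% of first-round signals and kept after retests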;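 also: first round at about 10 µM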
Target sequence (P48051 whole entry, looked up): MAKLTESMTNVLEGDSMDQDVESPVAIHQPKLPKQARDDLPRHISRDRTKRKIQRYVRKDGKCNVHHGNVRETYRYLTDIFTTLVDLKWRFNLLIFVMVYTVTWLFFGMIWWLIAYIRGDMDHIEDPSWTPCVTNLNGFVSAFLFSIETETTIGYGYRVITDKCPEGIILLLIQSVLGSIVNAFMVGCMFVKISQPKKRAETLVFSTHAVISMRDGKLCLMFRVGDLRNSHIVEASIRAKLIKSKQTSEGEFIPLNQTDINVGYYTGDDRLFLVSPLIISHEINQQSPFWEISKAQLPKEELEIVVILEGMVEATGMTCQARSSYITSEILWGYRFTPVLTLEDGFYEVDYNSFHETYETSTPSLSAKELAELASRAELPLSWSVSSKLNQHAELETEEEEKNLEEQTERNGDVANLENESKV
Calls only; i = inactive.

canonical_smiles	GIRK2 activ
COC(=O)C(Cc1ccccc1)NC(=O)c1cnn2c1OCCC2 (centres undefined)	i
COc1ccc(-n2c(C)cn3c4c(=O)n(CC(C)=O)c(=O)n(C)c4nc23)c(OC)c1	i
COc1ccc2c(=O)c(Oc3ccc(C(=O)NCc4ccco4)cc3)c(C)oc2c1	i
CCOc1ccccc1NC(=O)Cn1c(=O)n(CCc2nc(C)no2)c(=O)c2ccccc21	i
Cc1cn2c3c(=O)n(Cc4ccccc4)c(=O)n(C)c3nc2n1CCN1CCOCC1	i
Cc1noc(CNC(=O)C2(c3cccs3)CCCC2)n1	i
Cc1ccccc1-n1c(C)cn2c3c(=O)n(CCN4CCOCC4)c(=O)n(C)c3nc12	i
O=C(c1ccc(Cn2ccnc2)cc1)N1CCN(C(=O)C2CC2c2ccccc2)CC1 (centres undefined)	i

Other results
canonical_smiles	GIRK2 activ
O=C(CSc1ncc(-c2cccc([N+](=O)[O-])c2)n1-c1ccc(OC(F)F)cc1)N1CCCC1	i
COc1cc(Nc2ncnc3[nH]ncc23)cc(OC)c1OC	i
COc1cccc(CNC(=O)Cn2nc(-c3cccc(Br)c3)ccc2=O)c1	i
O=S(=O)(NCC1CCCO1)c1ccc(F)c(Cl)c1 (centres undefined)	i
COc1ccc(-c2ccc(C(=O)Nc3ccccc3SC)o2)c([N+](=O)[O-])c1	i
COc1ccc(NC(=O)COc2ccc(Cl)cc2Cl)cc1N1CCCC1=O	i
COc1cccc(OCC(=O)Nc2cc(C3CC3)nn2-c2nc(C)cc(=O)[nH]2)c1	i
O=C(Cn1nc2ccc(-c3ccccc3)nn2c1=O)NC1CCCCC1	i

Next entries follow.
canonical_smiles	GIRK2 activ
Cn1cccc(C(=O)NCCC(O)C2CC2)c1=O (centres undefined)	i
Cc1nnc(C2CCCN(S(=O)(=O)Cc3cccc(F)c3)C2)s1 (centres undefined)	i
Fc1ccc(-c2nnc(C3CCN(Cc4ccccn4)CC3)o2)cc1	i
CCCc1nnsc1C(=O)N1CCC(Oc2nc3c(Cl)cccc3s2)CC1	i
Cc1cc(Cl)cc2sc(N(Cc3ccccn3)C(=O)CN(C)S(C)(=O)=O)nc12	i
Cc1nccn1-c1ccc(C(=O)Nc2ccc(F)c(Cl)c2)nn1	i
Cc1cc(C)c(C)c(S(=O)(=O)N2C(=S)NC(=O)C2CC(C)C)c1C (centres undefined)	i
O=C(Cc1cc(=O)[nH]c(SCc2cccc(Cl)c2)n1)Nc1ccc(F)c(F)c1	i

(continued)
canonical_smiles	GIRK2 activ
O=C(Nc1nn[nH]n1)c1ccc(Cl)c(S(=O)(=O)N2CCCCC2)c1	i
COC(=O)c1scc(-c2ccc(C)cc2)c1S(=O)(=O)N1CCN(c2ccccc2F)CC1	i
Cn1nnc2c(N3CC(C(=O)N4CCC5(CC4)OCCO5)C3)ncnc21	i
COc1ccc(CCNC(=O)c2cn(-c3ccc(F)cc3)nn2)cc1OC	i
O=C(COc1ccc2ccccc2c1)NCC(O)C1CCCCC1 (centres undefined)	i
COCCN1COc2ccc3c(=O)c(Oc4ccc(OC)cc4)c(C(F)(F)F)oc3c2C1	i
O=C(Nc1ccc2c(c1)C(=O)Nc1ccccc1O2)c1nc2ccccc2s1	i
Cc1cc(C(=O)Nc2nc3c(s2)CN(C(=O)c2nc4ccccc4s2)CC3)no1	i

The list continues.
canonical_smiles	GIRK2 activ
O=C(C1=NNc2ccccc2S1(=O)=O)N1CCCCCC1	i
COc1ccc(F)cc1S(=O)(=O)NCc1sc(-c2cccs2)nc1C	i
CN(C)CCNc1ncnc2[nH]ncc12	i
CCCC(=O)Nc1cc(C)nn1-c1nc(-c2ccc(OC)c(OC)c2)cs1	i
COc1ccccc1NC(=O)CSc1ncnc2sc(C)cc12	i
CN(C1=NC(=O)CS1)c1ccccc1C(=O)O	i
Cc1ccc(N2CCCS2(=O)=O)cc1NC(=O)C(=O)NC1CCCCCC1	i
CN(CC(=O)NCc1ccncc1)c1nc2c(Cl)cccc2s1	i

Ordered by formula weight (rising): some entries from above.
canonical_smiles	GIRK2 activ
O=C(C1=NNc2ccccc2S1(=O)=O)N1CCCCCC1	i
COc1ccccc1NC(=O)CSc1ncnc2sc(C)cc12	i
CN(CC(=O)NCc1ccncc1)c1nc2c(Cl)cccc2s1	i

Other compounds
canonical_smiles	GIRK2 activ
CCOC(=O)NCCN1CCN(c2ccc(Cl)cc2)CC1	i
CSc1ncccc1C(=O)NC(C)Cc1ccco1 (centres undefined)	i
O=C(O)CCCCCC[C@H]1C(=O)C[C@@H](O)[C@@H]1/C=C/[C@@H](O)Cc1ccccc1	i
COc1ccc(Cl)c2sc(N(CCCN3CCOCC3)C(=O)c3ccn(C)n3)nc12	i
CCc1ccc(S(=O)(=O)c2cnc(SCC(=O)Nc3cccc(C(C)=O)c3)[nH]c2=O)cc1	i
COc1ccc(N2CC(c3nc(-c4ccc(C(F)(F)F)cc4)no3)CC2=O)cc1 (centres undefined)	i
COc1cccc(Oc2coc3cc(OC)ccc3c2=O)c1	i
CCOC(=O)c1ccc(NC(=O)CN2CC(c3nc(-c4cccc(Cl)c4)no3)C2)cc1	i

New compounds follow:
canonical_smiles	GIRK2 activ
CCC(C)NC(=O)Cn1c(=O)n(-c2ccc(OC)cc2)c(=O)c2ccccc21 (centres undefined)	i
Cc1cc(NC(=O)c2cccc(S(=O)(=O)N3CCCC3)c2)c2cc(Br)ccc2n1	i
O=C(NCC1CCN(C(=O)Oc2ccccc2)CC1)c1cnccn1	i
Cn1c(=O)n(Cc2cccc(Cl)c2)c(=O)c2c1nc1n2CC(O)CN1c1ccccc1 (centres undefined)	i
O=C(CN1CCN(CC(O)c2ccco2)CC1)N1CCOCC1 (centres undefined)	i
O=C(C1CC(=O)N(c2ccc(Cl)cc2)C1)N1CCC(c2nnc(-c3ccco3)o2)CC1 (centres undefined)	i
CC(=O)NCCc1nc2ccccc2n1CCC1CCCCC1	i
O=C(CSC1=NNC2C3CC(c4ccccc4)NN3C=CN12)Nc1ccc2c(c1)OCO2 (centres undefined)	i

Further structures
canonical_smiles	GIRK2 activ
CCN(CC)CC(O)COc1ccc2c(c1)c(C(C)=O)c(C)n2CC (centres undefined)	i
O=C(NCC1(CO)CC1)Nc1ccccc1	i
CN(c1ccccc1)S(=O)(=O)c1ccc(C(=O)N2CC(Oc3nc4ccccc4s3)C2)cc1	i
O=C(CCCCCn1cnc2ccccc2c1=O)Nc1ccc2c(c1)OCCO2	i
COc1ccc(-c2nc3sc(CCNC(=O)NC4CCCCCC4)c(C)n3n2)cc1	i
Cc1ccc(-n2ncc3c(=O)[nH]c(-n4nc(C)cc4NC(=O)C4CCCC4)nc32)cc1	i
CC(=O)c1ccc(NC(=O)CSc2nccc(-c3ccc(C)c(C)c3)n2)cc1	i
Cc1ccc(NC(=O)C(=O)NC2CCCC2)cc1F	i

Structural class, the compounds so far with a thiophene ring, fused or not (4)
canonical_smiles	GIRK2 activ
Cc1noc(CNC(=O)C2(c3cccs3)CCCC2)n1	i
COC(=O)c1scc(-c2ccc(C)cc2)c1S(=O)(=O)N1CCN(c2ccccc2F)CC1	i
COc1ccc(F)cc1S(=O)(=O)NCc1sc(-c2cccs2)nc1C	i
COc1ccccc1NC(=O)CSc1ncnc2sc(C)cc12	i

The listing continues:
canonical_smiles	GIRK2 activ
CCC1=C(C(=O)OC)C(c2cccs2)n2ncnc2N1 (centres undefined)	i
CN(C)CCC(c1ccc(Cl)cc1)c1ccccn1 (centres undefined)	i
O=c1c2ccccc2oc2nc(-c3ccc(Cl)cc3)n(Cc3ccco3)c(=O)c12	i
O=C(NCC1(c2ccc(F)cc2)CC1)Nc1cccs1	i
O=C1CN(C(=O)Nc2cccc(C(F)(F)F)c2)c2ccccc2N1	i
O=C(Nc1ccccc1-c1ccc(=O)[nH]n1)C1CCCN(c2ccc(-c3ccco3)nn2)C1 (centres undefined)	i
O=C(NCC#CCN1CCOCC1)c1nc2ccccc2s1	i
Cc1nnsc1C(=O)NCCC(O)c1cccc2ccccc12 (centres undefined)	i

The list continues:
canonical_smiles	GIRK2 activ
CN(C)CC1CSCCCN1S(=O)(=O)Cc1cccc(F)c1 (centres undefined)	i
Cc1cc(NC(=O)C2CCCCC2)n(-c2nc3ccccc3s2)n1	i
NC(=O)c1ccc(NC(=O)Cn2nc(-c3cccs3)c3sc(N4CCCC4)nc3c2=O)cc1	i
CC(O)(CCc1ccccc1)CNC(=O)NCc1cccc2ccccc12 (centres undefined)	i
O=C(NCCc1c[nH]c2ccccc12)C(c1ccccc1)n1cccc1 (centres undefined)	i
O=C(Nc1nc2ccccc2s1)C1CCN(S(=O)(=O)c2ccc(Cl)cc2)CC1	i
COCCN1CCC(NC(=O)c2cccc(OC)c2)CC1	i
COc1ccc(-c2noc(-c3ccc(=O)n(Cc4cccc(OC)c4)c3)n2)cc1	i

Further entries follow.
canonical_smiles	GIRK2 activ
CC(O)(CNC(=O)c1ccc(Cl)c(Cl)c1)c1cccs1 (centres undefined)	i
CCCCC/C=C\C/C=C\C/C=C\C/C=C\CCCCCC(=O)O	i
COCCN(Cc1ccoc1)S(=O)(=O)c1ccc(C(=O)OC)cc1	i
CCN1CC(c2nc3ccccc3n2Cc2ccc(Cl)cc2)CC1=O (centres undefined)	i
COc1ccc(Cc2nnc(SCC(=O)Nc3ccc(NC(C)=O)cc3)n2N)cc1	i
N#Cc1cnc(NC(=O)NCc2ccc(F)cc2)s1	i
CCn1c(SCC(=O)Nc2ccc(OC)cc2OC)nc2c3cc(OC)ccc3n(C)c2c1=O	i
O=C(c1ccc(Cl)nc1Cl)N1CCN(c2nsc3ccccc23)CC1	i

Additional compounds:
canonical_smiles	GIRK2 activ
O=C(Nc1ccccc1)N1CCC(Oc2ncccn2)CC1	i
O=C(/C=C/c1cccs1)NCc1cnn2ccccc12	i
CC(C)c1c(C(=O)Nc2cccc(F)c2)nnn1-c1ccccc1	i
O=C1C(=O)N(CCCn2ccnc2)C(c2ccccc2)C1=C(O)c1ccc2c(c1)OCCO2 (centres undefined)	i
CCc1nnc(C2CCN(C(=O)c3ccc4c(c3)OCO4)CC2)s1	i
CC(NC(=O)C1CCN(c2nc3ccsc3c(=O)n2-c2ccccc2)CC1)c1ccc(F)cc1 (centres undefined)	i
CCN(CC)c1nc2ccsc2c(=O)n1CCC(=O)NCc1ccccc1OC	i
O=S(=O)(c1c(F)cccc1F)N1CC(c2nc(-c3cnccn3)no2)C1	i

Other results.
canonical_smiles	GIRK2 activ
COc1ccc(CCS(=O)(=O)NCC(c2cn(C)c3ccccc23)N(C)C)cc1 (centres undefined)	i
CS(=O)(=O)N1CCC(C(=O)N2CCC(Cn3ccnc3)CC2)CC1	i
CC(C)=CCC/C(C)=C/CC/C(C)=C/CCC1(C)CCc2c(C)c(O)c(C)c(C)c2O1 (centres undefined)	i
CC(C)=CC(=O)Nc1nc(-c2ccc(Cl)cc2)cs1	i
CCOC(=O)CCC(=O)N1CCC(c2nnc(-c3ccccc3OC)s2)CC1	i
O=S(=O)(Nc1cnc(N2CCCC2)nc1)c1ccc(F)cc1F	i
COc1ccc(Cc2nnc(C3CCN(C(=O)C4CCCC4)CC3)s2)cc1	i
O=C(NCC#CCN1CCCC1)c1cccc(C(F)(F)F)c1	i

Other results follow:
canonical_smiles	GIRK2 activ
COc1ccc(OC)c(S(=O)(=O)NCCN2CCN(c3ccccc3F)CC2)c1	i
COc1ccc(CC(=O)N(CCn2cccn2)c2nc3ccccc3s2)cc1	i
CCCn1c(=O)c2c(nc3n(-c4ccccc4F)c(C)c(C)n23)n(C)c1=O	i
CCOC(=O)c1ccc(-n2c(N)c(C(=O)NC3CCCCC3)sc2=S)cc1	i
COc1cccc2sc(N(C)CC(=O)NC3CC3)nc12	i
COCCN(Cc1ccncc1)S(=O)(=O)c1ccc(-c2ccccc2)cc1	i
Cc1ccc(/C=C/S(=O)(=O)NCCCn2ncccc2=O)cc1	i
CCC(=O)N1CCCSCC1CN1CCOCC1 (centres undefined)	i

Next section; it opens with the five that closed the last part.
canonical_smiles	GIRK2 activ
CCOC(=O)c1ccc(-n2c(N)c(C(=O)NC3CCCCC3)sc2=S)cc1	i
COc1cccc2sc(N(C)CC(=O)NC3CC3)nc12	i
COCCN(Cc1ccncc1)S(=O)(=O)c1ccc(-c2ccccc2)cc1	i
Cc1ccc(/C=C/S(=O)(=O)NCCCn2ncccc2=O)cc1	i
CCC(=O)N1CCCSCC1CN1CCOCC1 (centres undefined)	i
Cc1ccc(-c2ncc3c(SCC(=O)Nc4ccc(C)c(Cl)c4)ncnc3n2)cc1	i
O=C(c1ccco1)N1CCCC(c2nnc(-c3ccccc3F)s2)C1 (centres undefined)	i
C#CCCNS(=O)(=O)C1CCCCC1	i
O=C(Nc1ccc(F)cc1)OC1CCCC(NS(=O)(=O)c2ccc(Cl)s2)C1 (centres undefined)	i
CNC(=O)Cc1csc(NC(=O)c2coc(NC(=O)c3cnccn3)n2)n1	i
CCc1ccc(S(=O)(=O)Nc2ccc3c(c2)N(S(C)(=O)=O)CCC3)cc1	i
Cc1cc(CN2CCC(CNC(=O)Nc3cccs3)CC2)c(C)o1	i
O=C(Cn1cnc2c(cnn2CCO)c1=O)c1ccc(Cl)cc1	i

Other entries follow.
canonical_smiles	GIRK2 activ
COc1cccc(-n2cc(-c3nc(-c4cc(OC)c(OC)c(OC)c4)no3)c3ccccc3c2=O)c1	i
Cc1ccc(S(=O)(=O)c2cnc(SCC(=O)Nc3ccc(F)cc3)[nH]c2=O)c(C)c1	i
C[C@@H](O)[C@H]1C(=O)N2C(C(=O)O)=C(S[C@@H]3CN[C@H](C(=O)N(C)C)C3)[C@H](C)[C@H]12	i
COc1ccc(OCCC(=O)Nc2nc3cc(OC)ccc3s2)cc1	i
O=C(Cc1ccsc1)NC1CCN(Cc2noc(-c3ccccc3)n2)C1 (centres undefined)	i
Cc1cc(CN2CCC(CNC(=O)Nc3ccccc3C)CC2)c(C)o1	i
O=C(CN1CCN(c2cccc(Cl)c2)C1=O)NC1CCS(=O)(=O)C1 (centres undefined)	i
COc1cc(/C=C/C(=O)NC2CC(=O)N(C3CC3)C2)cc(OC)c1OC (centres undefined)	i
COc1cccc(-c2csc(-c3nnn(-c4cccc(OC)c4)c3N)n2)c1	i
CCOC(=O)N1CCN(C(=O)CCC2NC(=O)c3ccccc3NC2=O)CC1 (centres undefined)	i

Assay outcomes: PubChem, Vanderbilt University

The list is partial (hit frequency here may not be typical).
